Rango dissoc inh – prevents RanGTP from dissociating the Rango-importin beta complex; O95149+P62826; Biochemical FRET Rango-importin beta, RanGTP-induced dissociation; Potency, µM (titrated, usually from 46.1 µM), inactives show at the highest dose activity change, negative = inhibition; hit rate 0.071% among 340,000; AID 540253; active means falling FRET ratio curve, often poorly fitted, with flat reads before Ran was added; inconclusive means other falling curves, or compound fluorescence or quenching; inactive means flat or rising ratio curve;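 further: potency means the concentration at half of the fitted maximal effect; % of control where 0% means no effect; nearly all actives have a fitted effect of over 45% in size; -100% = wells without RanGTP and RCC1; the record marks most hits as doubtful in a second field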
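Compounds preincubate 5 min with complex of recombinant Rango and importin beta in PBS with 1 mM DTT. Ran (0.6 uM) loaded with 2 mM GTP plus 0.2 uM RCC1 starts dissociation; FRET is recorded 45 min later.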
Rango-impB inh – prevents formation of the Rango-importin beta complex | Q14974 | Rango CFP/YFP FRET sensor + importin beta, 45 min | Potency, µM (top dose mostly 92.2 µM), without a hit: at the top dose inhibition of complex formation | hit rate 0.031% among 340,000; active = rising FRET ratio curve, often small or poorly fitted; inconclusive = mostly compound fluorescence or quenching in the first reads; inactive = flat curves in all reads;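 further: potency means the concentration at half of the fitted maximal effect; 0% = DMSO wells and 100% = buffer wells lacking importin beta; nearly all actives have a fitted effect of over 15% in size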
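Inhibition scored from the CFP 486 nm/YFP 530 nm FRET ratio 45 min after adding 0.125 microM importin beta to 50 nM Rango biosensor preincubated 5 min with compound (room temperature, PBS with DTT, Tween-20, BSA). No-importin wells as positive control.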
miR-21 FLuc – miR-21 reporter, rising signal; 340,000 tested, under 10 active; AID 2288; Potency, µM (highest dose often 38.3 µM), for inactives: at the top dose reporter change, positive = more light; HeLa miR-21 FLuc reporter, luciferase, 48 h; active = well fitted rising curve with a large enough effect; inconclusive = small, poorly fitted or top-dose-only effect; inactive = no such curve, though single readings can be large or run the other way;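 further: % of control where 0% means no effect; miR-21 action dims this reporter so a rising signal means less miR-21 action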
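HeLa miR-21-FLuc reporter line, endogenous miR-21; 2000 cells/well in DMEM/10% FBS; compound titration up to ~40uM final, 48 h, 37 degree Celsius; luciferase detection reagent, 15 min lysis, CCD luminescence.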
GLA inh pH 4.5 – inhibitors of human alpha-galactosidase A at pH 4.5. AID 1467. purified enzyme, 4-MU-alpha-Gal fluorescence, pH 4.5. activity change, negative = inhibition, % at 105 µM. P06280. 230,000 tested, under 10 active; inconclusive = small, poorly fitted or top-dose-only inhibition, or a rising curve; inactive = flat fitted curve, though single readings scatter; no compound was filed as active;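 further: 0% = full activity with enzyme and -100% = basal without enzyme; dose as in the result columns while the protocol names 77 µM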
Target sequence (P06280 whole entry, looked up): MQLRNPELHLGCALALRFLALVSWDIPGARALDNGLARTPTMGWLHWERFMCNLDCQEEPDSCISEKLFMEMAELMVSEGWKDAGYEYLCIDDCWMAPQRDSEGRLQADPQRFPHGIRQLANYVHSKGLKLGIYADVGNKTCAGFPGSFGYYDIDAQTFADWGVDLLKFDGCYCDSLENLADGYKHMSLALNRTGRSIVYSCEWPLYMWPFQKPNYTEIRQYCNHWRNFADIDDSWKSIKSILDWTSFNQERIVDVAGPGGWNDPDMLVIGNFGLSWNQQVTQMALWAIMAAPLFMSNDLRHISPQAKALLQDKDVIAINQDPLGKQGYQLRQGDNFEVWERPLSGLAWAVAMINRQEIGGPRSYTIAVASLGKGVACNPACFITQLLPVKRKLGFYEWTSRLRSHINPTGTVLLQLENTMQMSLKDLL
Starred values were filed as active, the others as inactive; ? = inconclusive; / = not tested or not shown; & = joins results of further samples; [ ] = remark or other dose. Not all compounds are listed; the hit share may differ from the screen's.

Screens in order – Rango dissoc inh	Rango-impB inh	miR-21 FLuc	GLA inh pH 4.5
[1] COc1ccccc1CC(=O)NNC(=O)c1cccs1
  0.5%	-2.2%	-6.1%	4.9
[2] CCC(C)NC(=O)c1ccccc1NC(=O)COc1ccc(OC)cc1 (centres undefined)
  -15.5%	5.9%	-0.6%	4.4
[3] CC(C)OC(=O)CSc1nnc(-c2ccc(O)cc2)n1Cc1ccccc1
  0.1%	2.4%	6.0%	-1.5
[4] CC(=O)c1cc(NC(=O)c2ccc(C)cc2)c(=O)oc1/C=C/N(C)C
  ?	?	-42.6%	-7.3
[5] Cc1ccc(C(=O)N2CCC3(CC2)Oc2ccc(F)cc2C(=O)C32CC(c3cccnc3)=NO2)s1 (centres undefined)
  0.5%	-0.7%	8.0%	-11.6
[6] CCCN(CCC)C(=O)Cn1c(=O)n(CCCCCC(=O)Nc2ccccc2)c(=O)c2sccc21
  -5.3%	-0.7%	-5.5%&-1.9%	7.9
[7] COc1ccc(S(=O)(=O)N2CCOCC2)cc1NC(=O)c1cc(C)oc1C
  -24.4%	4.0%	/	/
[8] O=C(NCC1CCCO1)c1ccc(COCC(F)(F)C(F)F)cc1 (centres undefined)
  0.8%	-1.4%	-20.5%	-8.6
[9] Cc1cc(N)c(NC2=CC(=O)CC(C)(C)C2)cc1C
  ?	?	-53.5%	-1.2
[10] O=C(CCN1C(=O)/C(=C\c2ccc(F)cc2)SC1=S)Nc1ccccc1
  0.4%	-1.4%	10.4%	/
[11] CN(C)c1cccc(C(=O)NN2C(=O)NC3(CCCCC3)C2=O)c1
  ?	3.5%	/	/
[12] COc1ccc(CNC(=O)COC(=O)c2ccc(Br)c(S(=O)(=O)N3CCOCC3)c2)cc1
  8.1%	3.7%	/	/
[13] Cc1ccc(N(C)C(=O)c2ccc(CNc3c(N4CCC(C)CC4)c(=O)c3=O)cc2)cc1
  22.3%	-0.1%	-1.3%	-9.0
[14] COc1ccc(N2CCN(C(CNS(=O)(=O)c3ccc(C)cc3)c3ccccc3)CC2)cc1 (centres undefined)
  0.2%	-3.3%	/	/
[15] COc1ccc(-n2c(SC)nnc2-c2c[nH]c3ccccc23)cc1
  ?	?	-3.8%	-1.4
[16] COc1ccc(-c2nc(N)n(C(=O)c3cccs3)n2)cc1
  7.1%	-2.1%	-1.1%	-1.8
[17] O=S(=O)(c1ccc(Br)cc1)N1CCCC1c1nc2ccccc2s1 (centres undefined)
  -3.9%	-2.0%	-5.4%	-2.9
[18] CCN(C(=O)COC(=O)CNS(=O)(=O)c1ccc2ccccc2c1)C1CCCCC1
  1.9%	-4.1%	/	/
[19] Fc1ccc(CSc2nnc(-c3ccncc3)o2)cc1
  -0.2%	-2.7%	12.6%	4.7
[20] CN(C)N(C)C(=O)C(O)(c1ccccc1)c1ccccc1
  -2.9%	-0.2%	-2.2%	-13.8
[21] CN(CC(=O)Nc1ccc(F)cc1)C(=O)CCc1ccccc1
  -0.2%	-2.6%	0.8%	/
[22] Cc1ccc(S(=O)(=O)N2CCN(C(=O)c3sccc3C)CC2)cc1
  -0.7%	?	/	/
[23] CN1CCCN(S(=O)(=O)c2ccc(Cl)c(Cl)c2)CC1
  2.2%	-1.0%	2.2%	1.0
[24] S=c1[nH]nc(-c2ccc3ccccc3n2)n1-c1ccc2ncccc2c1
  4.8%	1.0%	-31.2%	-1.8
[25] COC(=O)C1CN(C(=O)COc2ccccc2)c2ccccc2O1 (centres undefined)
  1.2%	-1.0%	2.1%	/
[26] CCN(CCCNC(=O)CN1C(=O)COc2ccc(S(=O)(=O)N3CCC(C)CC3)cc21)Cc1ccccc1
  5.2%	3.6%	0.8%	/
[27] CCOC(=O)C1(CC2CC2)CCN(S(=O)(=O)C[C@]23CC[C@H](CC2=O)C3(C)C)CC1
  -9.4%	-3.0%	3.5%	-4.2
[28] Cc1ccc(CN2CCC(NC(=O)c3ccccc3)CC2)cc1
  -4.5%	2.6%	1.0%	/
[29] Cc1cc(O)c(N)c(C)c1Cl
  -10.7%	5.3%	-5.8%	3.8[21.1 µM]
[30] CC(=O)c1c(C)[nH]c(C(=O)OCc2cccc(Cl)c2)c1C
  5.4%	2.2%	-26.0%	0.3
[31] NS(=O)(=O)c1ccc(NC(=S)N2CCN(Cc3ccc4c(c3)OCO4)CC2)cc1
  4.3%	1.5%	2.0%	7.6
[32] O=C(Nc1sc2c(c1C(=O)NCc1ccco1)CCCC2)c1ccc2c(c1)OCO2
  -21.1%	?	-48.2%	2.3
[33] COc1c(O)cccc1[C@@H](O)C1CCN(CCc2ccc(F)cc2)CC1
  -9.8%	7.8%	/	/
[34] COC(=O)c1ccc(Cn2cc([N+](=O)[O-])cn2)cc1
  -1.6%	-2.3%	-5.1%	4.6
[35] CC(=O)N1Cc2ccccc2CC1C(=O)NCc1ccccc1F (centres undefined)
  0.6%	-2.3%	?	/
[36] CC1CCCN(CCCNC(=O)C2CCC(CNS(=O)(=O)c3cccc4nsnc34)CC2)C1 (centres undefined)
  3.4%	-2.4%	-4.3%	/
[37] COc1ccc(N2CCN(Cc3nc4c(c(=O)n(C)c(=O)n4C)n3CCc3ccccc3)CC2)cc1
  -9.9%	-0.1%	-0.9%	2.6
[38] CCN(CC)c1ccc(/C=N/NC(=O)c2cc(C)nc3ccccc23)cc1
  2.2%	?	20.5%	-9.3
[39] C=CCn1c(=O)c2ccccc2n2c(=S)[nH]nc12
  -2.6%	-0.2%	3.9%	/
[40] CCn1c(SCC(=O)c2ccc3c(c2)OCCO3)nnc1C(C)C
  0.7%	-1.9%	-15.9%	0.6
[41] CCN(Cc1ccccc1)c1ccc(/C=N/N=C(N)N)cc1
  -7.7%	3.6%	?	-1.5
[42] COc1ccc2c(c1)CCc1c(C(=O)NCCN3CCOCC3)noc1-2
  -6.3%	0.9%	-14.3%	3.4
[43] COc1ccc(S(=O)(=O)Nc2cc3c(C(C)=O)c(C)oc3c3ccccc23)cc1
  5.6%	1.9%	24.2%	1.8
[44] CC1CCCC(NC(=O)COC(=O)COc2ccccc2Cl)C1C (centres undefined)
  -1.7%	-2.0%	-2.2%	-2.7
[45] CCN1CCN(CC(=O)Nc2ccc(OC(F)(F)F)cc2)CC1
  -5.3%	-0.6%	-9.7%	/
[46] Cc1noc(C)c1NC(=O)N(C)C[C@@H]1Oc2ccc(NC(=O)C3CCCCC3)cc2C(=O)N([C@@H](C)CO)C[C@H]1C
  -3.7%	?	/	/
[47] CC(C)c1nnc(NC(=O)C2CCCO2)s1 (centres undefined)
  17.7%	1.7%	-22.8%	-13.9
[48] Cc1cc(C)nc(N2CCCC(C(=O)NCc3ccccc3)C2)n1 (centres undefined)
  -10.1%	4.6%	-0.8%	-4.5
[49] O=C(CCc1nc2sc3c(c2c(=O)[nH]1)CCCC3)NCCc1ccc(F)cc1
  13.8%	-4.4%	-6.5%	/
[50] CCCNC(=S)NCc1ccc(Cl)cc1
  22.1%	0.0%	-1.4%	5.7
[51] COc1ccc(C(=S)NCS(=O)(=O)c2ccc(C)cc2)cc1
  1.6%	-2.4%	-6.5%	4.0
[52] COc1cc2nc(SCc3ccc(F)cc3)n(Cc3cccs3)c(=N)c2cc1OC
  3.8%	2.6%	5.5%	-4.0
[53] O=C(Nc1ccccn1)c1ccc2ccccc2c1O
  1.0%	-2.4%	-36.4%	/
[54] C/C(=N\N=C\c1ccccc1)c1nnn(-c2nonc2N)c1C
  0.8%	-0.6%	-32.0%	-12.0
[55] COc1cccc(OCc2nc3c4cnn(-c5ccccc5)c4ncn3n2)c1
  5.2%	-1.1%	-7.6%	-8.7
[56] CCc1ccc(N(CC(=O)Nc2ccccc2C(=O)N2CCOCC2)S(C)(=O)=O)cc1
  -13.7%	-2.0%	-7.4%	3.0
[57] COC(=O)c1sc(OC)cc1OCc1ccc(C)cc1
  -3.4%	-1.6%	-5.3%	0.0
[58] COc1ccc(OC)c2[nH]c(=O)c(CCNS(=O)(=O)c3ccccc3)cc12
  -8.3%	0.0%	-9.0%	-22.8
[59] CC(=O)c1ccc(NC(=O)c2cccs2)cc1
  -0.4%	-5.2%	-36.8%	1.1
[60] CCN1CCN(C(=O)c2cc3cc(Cl)ccc3[nH]2)CC1
  9.1%	-0.8%	-20.2%	/

(next part)
Screens in order – Rango dissoc inh	Rango-impB inh	miR-21 FLuc	GLA inh pH 4.5
[61] CCN1C(=S)SC(=O)C1=C1C=C(C)N(Cc2ccco2)C(C)=C1
  ?	?	-46.2%	-7.6
[62] Cc1ccc(N(C)S(=O)(=O)c2cccc(C(=O)Nc3ccc(C)cn3)c2)cc1
  -5.9%	0.5%	/	/
[63] Cc1ccc(SCC(=O)OCC(=O)Nc2ccc3[nH]c(=O)[nH]c3c2)cc1C
  0.5%	-1.5%	/	/
[64] CN1CCN(C(=O)c2ccccc2[N+](=O)[O-])CC1
  4.9%	2.7%	-2.4%	/
[65] COc1cc(CCCN2C(N)=NC[C@H]2Cc2ccc(O)cc2)cc(OC)c1OC
  2.4%	-1.4%	-4.4%	-4.0
[66] COc1ccc(/C=C(/C#N)C(=O)Nc2ccc(O)cc2)cc1C(=O)O
  -10.0%	3.5%	?	-23.2
[67] CCCCNC(=O)C1CCN(C(=O)Nc2ccc(C)cc2)CC1
  -0.8%	0.0%	-5.6%	-6.1
[68] CCc1ccccc1N(CC(=O)OC)S(C)(=O)=O
  -5.9%	-1.8%	-1.5%	-6.5
[69] Cc1ccc(C(=O)Nc2nc(=O)n(C)s2)cc1
  3.0%	1.8%	-6.8%	-1.7
[70] O=C(COC(=O)COc1ccccc1)NCc1ccccc1
  12.6%	-2.7%	-0.9%	4.9
[71] CCOc1ccc(-c2csc(NC(=O)CSCC(=O)O)n2)c2ccccc12
  3.7%	4.8%	7.5%	-4.9
[72] O=[N+]([O-])c1cccc(COc2ncnc3cc([N+](=O)[O-])ccc23)c1
  5.7%	-2.3%	-10.8%	-1.9
[73] C=CCn1c(SCC(=O)Nc2sc3c(c2C#N)CCC(C)C3)nc2cc(C(=O)O)ccc2c1=O (centres undefined)
  -10.0%	1.6%	/	/
[74] C[C@@]12C(=O)Nc3cc(Cl)ccc3C(=O)N1[C@H]1c3cc(Br)ccc3OC[C@@H]1[C@@H]2c1ccccc1
  -4.8%	?	/	/
[75] CC(=O)NC1(c2ccccc2)CCN(C(=O)N2CCOCC2)CC1
  3.6%	1.0%	-6.8%	4.9
[76] CN1CCC(N(C)C(=O)c2cc(S(=O)(=O)N(C)c3ccccc3)ccc2Cl)CC1
  23.8%	4.1%	/	/
[77] O=C(CCN1CCN(Cc2ccccc2)CC1)NNC(=O)Cc1ccc(Cl)c(Cl)c1
  3.4%	0.6%	-13.7%	-2.9
[78] CCC1CCCCN1CCCNC(=O)c1ccc2nc(N3CCC(C)CC3)sc2c1 (centres undefined)
  1.3%	-0.9%	-81.3%	/
[79] COc1ccc(OCCC(=O)Nc2cc3c(cc2C(=O)O)OCCCO3)cc1
  13.6%	0.2%	/	/
[80] COc1ccc(-c2cc3ncnc(Cl)c3s2)cc1
  ?	?	-33.2%	/
[81] Cc1ccccc1NS(=O)(=O)c1ccc(C)c(C(=O)N2CCOCC2)c1
  12.6%	0.9%	2.6%	/
[82] CC(C)OCCCNC(=S)NNC(=O)c1ccc(Cl)c(Cl)c1
  -0.7%	?	-32.4%	2.9
[83] OC(COCc1ccc(Cl)cc1)CN1CCN(CC(O)COCc2ccc(Cl)cc2)CC1 (centres undefined)
  -7.5%	0.7%	?	-9.0
[84] COc1cc(/C=C/C(=O)OCC(=O)c2c[nH]c3ccccc23)ccc1OC(F)F
  -8.2%	?	0.5%	-3.6
[85] CC(=O)NC(CC(=O)O)c1ccc([N+](=O)[O-])cc1 (centres undefined)
  -7.3%	4.4%	0.1%	0.8
[86] COc1ccc(-c2nc(CSCC(=O)N3CCN(C4CCCCC4)CC3)c(C)o2)cc1OC
  -3.9%	-0.3%	/	/
[87] COC(=O)c1c(C)oc2ccc(OC(=O)c3cccs3)cc12
  -1.8%	0.3%	-4.8%	-9.2

Looked up above:
CCN1CCN(CC(=O)Nc2ccc(OC(F)(F)F)cc2)CC1 in Rango dissoc inh is entered as -5.3%
O=C(COC(=O)COc1ccccc1)NCc1ccccc1 in Rango-impB inh is entered as -2.7%

Compound activity as filed in PubChem BioAssay.
